# Screening results (PubChem BioAssay)
# HIV TAR-Tat = HIV-1 TAR-Tat binding disruption; z-score (no concentration beside the values); AID 1259389; hit rate 0.6% among 100,000; HIV-1 TAR RNA, Tat peptide displacement FRET; hits give high values;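 further: score is relative to mean and SD of negative controls; some compounds called inactive have numbers as strong as hits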
# CDC25B CDK2 inh = human CDC25B-CDK2/CyclinA binding inhibition | AID 1259370 | HTRF CDC25B-CDK2/CyclinA binding, anti-His/anti-Flag; hits give high values | hit rate 0.72% among 94,000 | P30305+P24941 | z-score (no concentration beside the values);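 further: score is relative to mean and SD of negative controls; strong numbers were not always called active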
# * = called active by the depositor; . = not tested or not shown; ! = not confirmed by another sample.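 How the source made its calls: active means z-score from 3 up in half or more of its runs; inactive means the rest.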
compound | HIV TAR-Tat | CDC25B CDK2 inh
COc1ccc(-c2noc(CC3CCCCC3)n2)cc1 | . | 0.61
Cc1cn2c(=O)c(S(=O)(=O)Nc3ccccc3Cl)c(C)nc2s1 | 0.1 | .
Cc1ccc(S(=O)(=O)N2CCCCC2)cc1 | . | -1.77
CCN1CCN(c2cc3c(cc2F)c(=O)c(S(=O)(=O)c2ccc(Cl)cc2)cn3C)CC1 | 0.8 | .
O=C(Nc1cccc(-c2cnco2)c1)C1COc2ccccc2O1 (configuration not stated) | . | -1.19
CC1CCC(NC(=O)c2cnn3c4c(cnc23)CC(C)CC4)CC1 (configuration not stated) | 0 | .
Cc1cc(C)c(S(=O)(=O)Nc2ncn(Cc3ccc(Cl)cc3)n2)cc1C | -1.1 | -1.67
CCOc1ccc(NC(=O)CSc2nn3c(=O)c(C(C)(C)C)nnc3s2)cc1 | 0.08 | .
COc1ccc(NC(=O)C2CC(=O)N=C(N)S2)cc1 (configuration not stated) | . | -1.18
Cc1nc2c(-c3ccc(F)cc3)c(C)nn2c(C)c1CCC(=O)Nc1ccc2c(c1)OCO2 | . | -0.7
Cc1c(NS(=O)(=O)c2ccc(-c3ccon3)s2)c(=O)n(-c2ccccc2)n1C | . | -0.8
CCn1c(C(=O)NCCc2c[nH]c3ccccc23)c(N2CCCC2=O)c2cc(F)ccc21 | 0.49 | .
O=C1c2cccnc2C(=O)N1CCc1ccc(S(=O)(=O)N2CCC(N3CCCCC3)CC2)cc1 | -0.65 | .
Cc1nc2sccn2c(=O)c1S(=O)(=O)Nc1ccc(N2CCN(C(=O)C(C)C)CC2)cc1 | 0.94 | -0.75
O=C(NCc1ccc2c(c1)OCO2)c1cc(-c2ccc3c(c2)OCCO3)on1 | 1.62 | -0.94
O=C(NCCN1CCCC1)C1CCCN1c1nnc(N2CCCC2=O)s1 (configuration not stated) | 2.35 | -1.71
CCCOC(=O)CSC1=C(C#N)C(c2ccc(O)cc2)CC(=O)N1 (configuration not stated) | 0.96 | -2.96
CC(C)C[C@@H](C=O)NC(=O)[C@H](CC(C)C)NC(=O)[C@H](CC(C)C)NC(=O)OCc1ccccc1 | 3.88*! | .
CCOC(=O)c1c(NC(=O)C(C)Sc2ncnc3ccccc23)sc2c1CCC2 (configuration not stated) | . | -2.32
COc1ccc(Nc2ncnc(-n3cccc3)n2)c(OC)c1 | . | -1.22
CCOC(=O)c1cc(OC(C)=O)c2ccc(OC)c(OC)c2c1 | . | -1.24
CCOC(=O)C1CCCN(c2cc(NCC(C)C)c3c4c(onc24)-c2ccccc2C3=O)C1 (configuration not stated) | 0.8 | -1.22
Cc1nc(SCC(=O)Nc2sc3c(c2C(N)=O)CCCC3)cc(-c2ccccc2)n1 | -0.86 | -1.63
O=c1[nH]c(=O)n(Cc2cccnc2)c2c1CN(C1CCCCC1)CN2 | 0.63 | -2.79
O=C(NCC1COCCO1)c1cc(-c2cccnc2)nc2ccccc12 (configuration not stated) | 0.58 | .
CC(C)c1cc(-c2nc(-c3ccc4c(c3)OCO4)no2)n[nH]1 | -3.09 | .
CCOC(=O)c1sc(NC(=O)c2cc(=O)c3c(C)cc(C)cc3o2)c(C(=O)OCC)c1C | -0.53 | -1.69
Cc1cc(-c2ccc(C)c(S(=O)(=O)NCc3cccc(Br)c3)c2)on1 | 1.45 | .
Cc1cccc2nc(CSc3nnnn3-c3ccccc3)c(Br)n12 | 0.83 | -1.88
Cc1ccc2nc(Cc3ccc(N)cc3)[nH]c2c1 | 0.1 | -0.38

# An excerpt from above in order of count of non-hydrogen atoms, high to low:
compound | HIV TAR-Tat | CDC25B CDK2 inh
CCOC(=O)C1CCCN(c2cc(NCC(C)C)c3c4c(onc24)-c2ccccc2C3=O)C1 (configuration not stated) | 0.8 | -1.22
CCOC(=O)c1sc(NC(=O)c2cc(=O)c3c(C)cc(C)cc3o2)c(C(=O)OCC)c1C | -0.53 | -1.69
Cc1nc(SCC(=O)Nc2sc3c(c2C(N)=O)CCCC3)cc(-c2ccccc2)n1 | -0.86 | -1.63
O=C(NCC1COCCO1)c1cc(-c2cccnc2)nc2ccccc12 (configuration not stated) | 0.58 | .
CC(C)c1cc(-c2nc(-c3ccc4c(c3)OCO4)no2)n[nH]1 | -3.09 | .
Cc1ccc2nc(Cc3ccc(N)cc3)[nH]c2c1 | 0.1 | -0.38

# (more compounds)
compound | HIV TAR-Tat | CDC25B CDK2 inh
Cc1cc(CNC(=O)NC2CCCC2)c(C)n1-c1ccc(F)cc1 | 0.06 | .
CCOc1ccccc1NC(=O)NC1(C(F)(F)F)Oc2ccccc2O1 | . | -1.53
Brc1ccccc1-c1nnc2sc(-c3cccs3)nn12 | 0.88 | -1.31
CC1(C)CC(=O)C=C(Sc2nc3cc(Cl)ccc3s2)C1 | . | -0.28
Cn1cc(C(F)(F)F)nc1-c1ccc(OCC(O)CNCCOc2ccc(O)c(C(N)=O)c2)cc1 (configuration not stated) | . | -0.69
Cc1nnc(-c2cn(CC(=O)O)c3ccccc23)o1 | 2.09 | -2
Cc1nc(Oc2ccccc2F)c2oc3ccccc3c2n1 | 0.76 | .
Cc1ccc(S(=O)(=O)Nc2ccc3[nH]c(=O)oc3c2)cc1 | 1.04 | .
CCOC(=O)N1CCN(c2ncnc3c2CC(=O)N3)CC1 | 0.58 | -0.87
Oc1ccccc1C1=NCCNC(C(F)(F)F)=C1 | -0.36 | -0.95
Cc1cccc(-n2ncc3c(N4CCOCC4)ncnc32)c1 | 0.29 | .
Cc1ccc(-c2nc3nc(C)c(Cl)c(C)n3n2)cc1 | 0.24 | 0.79
CCOC(=O)c1c(C)oc2ccc(OC)cc12 | -0.51 | -1.1
COc1ccc(-c2cc(=O)c3c(O)cc(O)cc3o2)cc1 | 1.66 | .
Cc1ccc(N2C(=O)CC(N3CCCC4CCCCC43)C2=O)cc1 (configuration not stated) | -0.97 | -1.17
Cn1nc(C(=O)N2CCN(c3ccc(Cl)cc3)CC2)c2c1-c1ccsc1CC2 | 0.26 | .
N#CC1=C2SCN(c3ccccc3F)CN2C(=O)CC1c1ccccc1 (configuration not stated) | 0.23 | 6.48*
COC(=O)c1c(NC(=O)c2nc(SC)ncc2Cl)sc2c1CCCC2 | 2.49 | -1.46
Cc1ccc(C)c(CN2C(=O)N(Cc3ccccc3)S(=O)(=O)c3ccccc32)c1 | 1.41 | .
O=C(NCCc1cccs1)c1cnc(N2CCCC2)nc1 | 0.29 | .
C=CCC1(Nc2ccccc2)CCCCC1 | 0.88 | -0.67
CCOc1ccccc1C1C2=C(Nc3c1c(=O)[nH]c(=O)n3C)c1ccccc1C2=O (configuration not stated) | 0.86 | -0.02
N#Cc1nc(/C=C/c2cccs2)oc1NCCN1CCOCC1 | -1.06 | -1.6
Clc1ccccc1-c1nc(N2CCOCC2)c2ccccc2n1 | . | -1.14
CC1Cn2cc(C(=O)NCc3ccco3)c(=O)c3c(Cl)ccc(c32)O1 (configuration not stated) | 0.04 | .
O=C(O)C1=CC(c2cccc(O)c2)n2ncnc2N1 (configuration not stated) | 0.22 | .
CCOc1ccccc1-c1noc(CSc2nnc(C)n2-c2ccc(C)c(C)c2)n1 | 1.08 | -0.28
CCCCCn1c(CCCNC(=O)C(C)(C)C)nc2ccccc21 | 0.52 | -1.02
Cc1cc2c(cc1C)[n+](C)cn2CC(O)COc1ccccc1C (configuration not stated) | 0.37 | 0.04
O=C1c2cccnc2C(Nc2ccc(F)cc2Cl)N1Cc1ccco1 (configuration not stated) | 0.56 | .
O=C(c1ccco1)N1CCN(Cc2c[nH]c3ccccc23)CC1 | 0.97 | 0.84
CC(C)=NNc1nc2c(c(=O)n(C)c(=O)n2C)n1C | . | -0.48
CC(C)N(C(=O)Cc1c(O)c2ccccc2[nH]c1=O)C(C)C | 1.39 | .
Cn1c(SCc2ccc(Cl)cc2)nc(=O)c2c1NC(=O)CC2c1ccc2c(c1)OCCO2 (configuration not stated) | 0.19 | -1.14
Cc1onc(-c2c(Cl)cccc2Cl)c1C(=O)NCc1csc2ccccc12 | . | 0.31
O=c1c(S(=O)(=O)c2ccccc2)c[nH]c2cc(F)c(F)cc12 | -0.03 | -1.33
COc1cccc(-c2n[nH]c3c2C(c2ccccc2)NC3=O)c1 (configuration not stated) | -1.63 | -0.92
CC(C)CNS(=O)(=O)c1ccc(S(=O)(=O)N2CCN(c3ncccn3)CC2)cc1 | 1.2 | -0.37
CC(C)(C)C(=O)Nc1c(C(=O)N2CCN(c3ccccc3F)CC2)oc2ccccc12 | 1.05 | .
Cc1cc2c(cc1NC(=O)Cc1cccs1)n(C)c(=O)n2C | 0.26 | .

# Two compounds picked at random from those above:
compound | HIV TAR-Tat | CDC25B CDK2 inh
CC(C)CNS(=O)(=O)c1ccc(S(=O)(=O)N2CCN(c3ncccn3)CC2)cc1 | 1.2 | -0.37
CC(C)=NNc1nc2c(c(=O)n(C)c(=O)n2C)n1C | . | -0.48

# Other compounds
smiles,HIV TAR-Tat,CDC25B CDK2 inh
O=C1CC(Sc2nc3ccccc3s2)C(=O)N1c1ccc(F)cc1 (configuration not stated),-1.34,-1.07
Cc1cccc(N2CCN(S(=O)(=O)c3cn(C)cn3)CC2)c1C,1.46,.
COc1nc(-c2ccccc2)cc(-c2ccc3c(c2)OCO3)c1C#N,.,-1.52
CC(C)Cn1cc(NC(=O)NCCCOC(C)C)c2ccccc2c1=O,1.13,.
CCn1c(SCC(=O)NC(C)(C)C)nc2c1c(=O)n(C)c(=O)n2C,0.51,-2.59
Cc1cc2c3c([nH]c2cc1S(=O)(=O)Nc1ccc(S(N)(=O)=O)cc1)CCCC3=O,10.8*,.
Cc1nn(-c2nc3ccccc3n2C)c2c1C(c1cc(Cl)ccc1F)CC(=O)N2 (configuration not stated),1.61,.
O=C(Cn1cnc2c(nnn2-c2cccc(Cl)c2)c1=O)NCC1CCCO1 (configuration not stated),-0.36,0.62
Clc1cccc(N=NN2CCOCC2)c1Cl,.,-2.06
CCOC(=O)N1CCN(C(=O)C2CCN(S(=O)(=O)c3cccc4nsnc34)CC2)CC1,2.77,.
O=C(NC1CCCC1)C1CCN(C(=O)c2sccc2-n2cccc2)CC1,1.52,-1.11
CCN(CC)S(=O)(=O)c1ccc2c(c1)nc(CN(C)S(=O)(=O)c1ccc(C)cc1)n2C,0.58,.
Nc1c(C(=O)NCC2CCCO2)sc2nc(N3CCCC3)c3c(c12)CCCC3 (configuration not stated),0.51,-0.27
COc1ccc(NS(=O)(=O)c2cc(-c3cnc(C4CC4)o3)ccc2C)cc1Cl,1.1,.
O=C1CCCc2oc3c(Br)cc(NS(=O)(=O)c4cc(Cl)ccc4Cl)cc3c21,.,-3.32
CCc1ccc(N2C(=O)C3N=NN(Cc4ccccc4C)C3C2=O)cc1 (configuration not stated),-0.38,-1.18
Cc1nnsc1C(=O)Nc1cccc(N)c1,.,3.03
Cc1nn(Cc2ccc(F)cc2)c(C)c1NC(=O)c1noc2c1CC(C(C)(C)C)CC2 (configuration not stated),.,0.08
CCCn1cc(S(=O)(=O)c2ccc(OC)cc2)c(=O)c2cc(OC)ccc21,-1.19,-1.35
Cc1cc(C)cc(NS(=O)(=O)c2cc3c4c(c2)CCN4C(=O)CC3)c1,1.23,.
Cc1nc2sccn2c(=O)c1S(=O)(=O)Nc1ccc(N2CCN(C)CC2)cc1,2.82,-0.19
Cn1nc(C(C)(C)C)cc1N,.,-0.59
COC(=O)C1=NN(c2ccc(OC)cc2)C2C(=O)N(c3ccc(Br)cc3)C(=O)C12 (configuration not stated),0.51,-0.79
COc1ccc(Cl)cc1NC(=O)NCc1noc2ccccc12,-0.15,.
Cn1c2ccccc2c2cnn(CC(=O)NCCN3CCOCC3)c(=O)c21,1.1,-0.22
Cc1cccn2c(=O)c(C(=O)NCCc3cccs3)cnc12,1.42,.
Cc1nnsc1C(=O)Nc1ccc2c(c1)OCCO2,.,-0.44
Cc1ccc(N2C(=O)C=C(Sc3ccc(C(C)(C)C)cc3)C2=O)cc1,.,-1.65
CCSc1nnnn1-c1ccc(C(=O)O)cc1,0.89,.
CN1C(C(=O)Nc2sc3c(c2C#N)CCC3)=CC(c2cccs2)=NS1(=O)=O,1.96,-1.8
Cc1ncc(-c2ccc(S(=O)(=O)Nc3ccccc3F)cc2)o1,1.09,.
CCCCn1nnc2sc3c(c2c1=O)CCCC3,-1.07,-0.23
CN1CCN(Cc2nc3c(c(=O)n(C)c(=O)n3C)n2Cc2cccc3ccccc23)CC1,.,-1.18
Cc1c(C(=O)NC2CCCCC2)oc2ccc(S(=O)(=O)N3CCCC3)cc12,.,-0.39
c1ccc(CSc2nnc(C3CCNCC3)o2)cc1,0.11,-1.33
Cc1ccc(C)c(NS(=O)(=O)c2ccc3c(c2)C(C)(C)C(=O)N3C)c1,2.24,.
CC(C)c1ccc(NC(=O)NC(=O)c2ncon2)cc1,.,-2.07
CSc1nc(N)nc(-c2cccs2)n1,.,-2
CCOC(=O)c1cc(-c2csc(CS(=O)(=O)Cc3cccc(C(F)(F)F)c3)n2)on1,.,-1.04
Cc1nc(C)c(C(=O)Nc2nc(-c3ccc(F)cc3)c(C)s2)s1,2.53,-2.41
O=C(CCC(NC(=O)OCc1ccccc1)C(=O)OCc1ccccc1)Oc1ccc([N+](=O)[O-])cc1 (configuration not stated),.,-1.99
Nc1ccccc1Sc1nc(Br)nn1Cc1ccccc1,1.12,-0.25
Cc1nc(-c2cccnc2)sc1CCNS(=O)(=O)c1cccs1,1.35,.
C=CCNC(=O)c1c(NC(=O)c2ccco2)sc2c1CCC(C(C)(C)C)C2 (configuration not stated),0.74,-0.16
O=C(Nc1ccccc1)Nc1nnc(SCc2ccc(Cl)cc2Cl)s1,.,-2.83
O=C(CN1C2=NCCN2c2ccccc21)c1ccc(F)cc1,0.85,-1.41
CN(C(=O)C(Cc1ccccc1)NS(=O)(=O)c1ccc2c(c1)CCC(=O)N2)C1CCCCC1 (configuration not stated),.,-1.04
Cc1ccc2nc(-c3ccc(N)cc3)[nH]c2c1,1.9,-0.83
Brc1ccc(CNc2ccc3c(c2)ncn3-c2ccccc2)cc1,.,-5.96
O=C(C1CCN(c2ncnc3c2nc2n3CCCCC2)CC1)N1CCN(c2ccccc2)CC1,0.41,.
